High-throughput results from PubChem BioAssay.
VCAM-1 down = inhibitors of TNFa-induced VCAM-1 surface display, cell-based, plate reader, pooled HUVEC, TNFa stimulus (AID 454) | inhibition, % at 5 µM | HUVEC TNFa-induced VCAM-1 surface immunofluorescence, plate reader; numbers were filed only for top-ranked candidate wells | 10,000 compounds, 0.2% hits;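 active = compound among top-ranked inhibitors of TNF-induced VCAM-1 adhesion protein staining, with the hit upheld by image or statistical review; inactive = the rest, including hits rejected on review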;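 also: 0% = TNFa with vehicle and 100% = cells without TNFa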
VCAM-1 augmentation = enhancers of VCAM-1 display on endothelial cells, imaging, high-content imaging, pooled HUVEC, TNFa stimulus (AID 457); Pooled HUVEC, TNFa-induced VCAM-1 immunofluorescence imaging; hits of this screen are not shown here; calls only; 10,000 compounds, 0.2% hits;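 active = a top-ranked rise in VCAM-1 staining upheld on image or statistical review; inactive = the rest, including candidates rejected on review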;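 also: compounds tested at 5 µM in the well; cells exposed to compound for 24 hours before fixing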
FPRL1 binder = human FPRL1 ligand, with FPR counter-screen. P25090. FPRL1-expressing cells, fluorescent ligand binding inhibition, flow cytometry. inhibition, %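 (tested at 6.7 µM)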. 24,000 compounds, 0.3% hits;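 also: 0% = buffer alone and 100% = receptor blocker peptide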
Target sequence (P25090 whole entry, looked up): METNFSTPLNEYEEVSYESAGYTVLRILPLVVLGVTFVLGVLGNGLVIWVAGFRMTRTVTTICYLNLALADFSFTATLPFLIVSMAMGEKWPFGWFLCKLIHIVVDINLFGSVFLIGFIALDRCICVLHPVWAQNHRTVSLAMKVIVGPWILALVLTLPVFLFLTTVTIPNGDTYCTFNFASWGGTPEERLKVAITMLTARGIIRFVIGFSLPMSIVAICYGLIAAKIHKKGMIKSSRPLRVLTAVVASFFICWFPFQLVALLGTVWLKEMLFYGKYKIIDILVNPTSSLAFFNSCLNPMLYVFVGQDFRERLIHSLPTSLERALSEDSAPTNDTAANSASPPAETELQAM
FPR ligand = human FPR ligand, with FPRL1 counter-screen. P21462. FPR-expressing cells, fluorescent ligand binding, flow cytometry. inhibition, %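 (tested at 6.7 µM)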. 24,000 compounds, 0.74% hits. AID 440;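 also: 0% = buffer wells and 100% = receptor blocker peptide wells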
Target sequence (P21462 whole entry, looked up): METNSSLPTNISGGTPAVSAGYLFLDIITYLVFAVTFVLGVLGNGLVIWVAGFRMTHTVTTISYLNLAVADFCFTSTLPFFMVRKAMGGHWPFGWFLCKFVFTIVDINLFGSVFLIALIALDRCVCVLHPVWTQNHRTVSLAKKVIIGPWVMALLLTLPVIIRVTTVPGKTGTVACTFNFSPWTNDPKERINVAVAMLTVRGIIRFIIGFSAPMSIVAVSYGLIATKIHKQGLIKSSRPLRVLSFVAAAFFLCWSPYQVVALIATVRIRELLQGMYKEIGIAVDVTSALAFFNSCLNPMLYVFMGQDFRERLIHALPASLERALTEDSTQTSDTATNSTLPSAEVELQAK
VCAM-1 imaging = suppression of endothelial VCAM-1 upregulation – imaging, high-content imaging, pooled HUVEC, TNFa stimulus (AID 456) | one-dose inhibition, % at 5 µM; IC50 in µM for titrated hits | HUVEC TNFa-induced VCAM-1 surface expression, immunofluorescence imaging; numbers were filed only for top-ranked candidate wells | 10,000 compounds, 0.2% hits;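 active = top tenth filtered wells with inhibition above zero that passed visual or statistical confirmation; inactive = the rest, including hits rejected on review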;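 also: 0% = stimulated vehicle wells and 100% = unstimulated cells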
Starred values were filed as active, the others as inactive; i = inactive; . = not tested or not shown.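 The calls were made as follows, unless noted: active = mean above 30%; inconclusive = self-fluorescent; inactive = the rest.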 Some of the compounds tested; the hit share may differ from the screen's.

Under each structure – VCAM-1 down, VCAM-1 augmentation, FPRL1 binder, FPR ligand, VCAM-1 imaging
- Cc1ccc(NC(=O)CC2Oc3ccccc3NC2=O)c(C)c1 (stereo unspecified)
    ., ., 1, -3, .
- CSc1ccc(S(=O)(=O)Nc2ccc3c(c2)OCCO3)cc1
    ., ., -1, 4, .
- Cc1c(C(=O)OCC(C)(C)CN(C)C)oc2ccccc12
    i, i, 11, 5, i
- COc1ccc(C(N)CCc2ccco2)cc1 (stereo unspecified)
    ., ., 6, -4, .
- COCCNC(=O)c1ccc(CS(=O)(=O)c2ccccc2)o1
    ., ., -1, -4, .
- CCOc1ccc(-n2c(Cc3cc(=O)[nH]c(=O)[nH]3)nnc2SC(C)C(=O)OC)cc1 (stereo unspecified)
    ., ., 0, -9, .
- Cc1ccc(S(=O)(=O)C2(C(=O)NC3CCCC3)CC2)cc1
    i, i, 0, 1, i
- Cc1ccc(Cl)cc1NC(=O)CSc1nnc(C)n1-c1ccccc1
    i, i, 4, 3, i
- O=C(O)C1C2CCC(C2)C1C(=O)NCc1ccccn1 (stereo unspecified)
    ., ., -4, 1, .
- CCCS(=O)(=O)N1CCCC(C(=O)NCCCN2CCCC2=O)C1 (stereo unspecified)
    ., ., -4, -9, .
- Cc1ccc2nc(NC(=O)CCNS(=O)(=O)c3ccc(Br)s3)sc2c1
    ., ., 9, -5, .
- CCOC(=O)C1CCCN(C(=O)C2CCC(CNS(=O)(=O)c3ccc(NC(C)=O)cc3)CC2)C1 (stereo unspecified)
    ., ., 3, 9, .
- Cc1ccc(OCCN2CCN(C(=O)CCC(=O)Nc3nnc(C)s3)CC2)cc1
    i, i, 0, -3, i
- O=C(Nc1cccnc1)C1CCCN(S(=O)(=O)c2cccc3nsnc23)C1 (stereo unspecified)
    ., ., 6, -1, .
- Cc1nn(C(C)C(=O)N2CCN(c3ccccn3)CC2)c(=O)c2cc3occc3n12 (stereo unspecified)
    ., ., -2, -3, .
- CCOc1ccc(OCC)c(N=c2oc3c(C)ncc(CO)c3cc2C(N)=O)c1
    ., ., 0, -12, .
- CCOc1ccccc1CNC(=O)CCN1C(=O)COc2ccccc21
    i, i, 1, -1, i
- Cc1ccnc(NS(=O)(=O)c2cccc3nsnc23)c1
    ., ., -2, 1, .
- COc1cc(NC(=O)CN(c2ccc(C)cc2)S(=O)(=O)c2c(C)nn(C)c2C)cc(OC)c1
    ., ., 0, 2, .
- CCCCSc1nnc([C@H](C)NC(=O)OC(C)(C)C)o1
    i, i, 8, 27, i

Under each structure – VCAM-1 down, VCAM-1 augmentation, FPRL1 binder, FPR ligand, VCAM-1 imaging
- O=C1c2ccccc2C(Nc2ccc(S(=O)(=O)N3CCOCC3)cc2)N1c1cccnc1 (stereo unspecified)
    ., ., -1, -7, .
- COC(=O)c1cc2ccsc2n1Cc1nc(-c2ccc(OC)cc2)oc1C
    i, i, -11, -4, i
- CCN(CC)C(=O)CN(c1cc(Cl)ccc1OC)S(C)(=O)=O
    i, i, -6, -7, i
- CCN1CCN(C(=O)c2nn(-c3ccc(C)cc3)c(=O)c3c2c2ccccc2n3C)CC1
    ., ., -7, -17, .
- CCN(CC)S(=O)(=O)c1cccc(C(=O)Nc2ccc(C#N)cc2)c1
    ., ., 3, 6, .
- Cn1c(Cn2c(=O)sc3ccccc32)nnc1SCC(=O)Nc1ccc2c(c1)OCO2
    ., ., 1, 13, .
- O=C(CCNS(=O)(=O)c1ccc2c(c1)CCC(=O)N2)NCc1cccnc1
    ., ., 2, -3, .
- COc1cccc(NC(=O)COc2ccccc2C(N)=O)c1
    i, i, 16, 7, i
- CCOC(=O)c1oc2cc(O)ccc2c(=O)c1-c1ccc(OC)cc1
    ., ., -6, -9, .
- Cc1ccc(C)c(NC(=O)c2nnn(Cc3ccccc3)c2N)c1
    ., ., 7, -4, .
- CCOC(=O)c1[nH]c(C)c(C(=O)NCc2ccccn2)c1C
    i, i, 4, 13, i
- CCC1Oc2ccc(C)cc2N(CC(=O)NCCN2C(C)CCCC2C)C1=O (stereo unspecified)
    ., ., -4, -6, .
- Cc1cccc(Nc2nn3c(=O)c4ccccc4nc3s2)c1
    ., ., 3, -3, .
- Cc1ccc(Cn2c(SCCN3CCCCC3)nc3c2c(=O)[nH]c(=O)n3C)cc1
    i, i, 0, -2, i
- CCCC(=O)N1CC2(C)CN(C(=O)CCC)CC(CCC)(C1)C2=O
    ., ., 10, 3, .
- Cc1cccc(-n2c(N)c(C(=O)N3CCN(C)CC3)sc2=S)c1
    i, i, 2, -7, i
- CCC(=O)N1CCc2cc(S(=O)(=O)CCC(=O)Nc3ccc(F)c(F)c3)ccc21
    i, i, 0, -3, i
- Cc1ccc(N2CCN(C(=O)C3CCN(S(=O)(=O)c4cccc5nsnc45)CC3)CC2C)cc1 (stereo unspecified)
    ., ., -2, -6, .
- S=c1[nH]nc(-c2ccco2)n1-c1cccc2ccccc12
    i, i, 5, -4, i
- COc1ccc(-c2cc(C(F)(F)F)n3nc(C(=O)N4CCOCC4)nc3n2)cc1
    i, i, 3, -4, i

Under each structure – VCAM-1 down, VCAM-1 augmentation, FPRL1 binder, FPR ligand, VCAM-1 imaging
- CC1CCN(S(=O)(=O)N2CCC(C(=O)NCc3cccs3)CC2)CC1
    ., ., -3, 2, .
- Cc1ccc(OCC(=O)Nc2ccc(S(=O)(=O)Nc3onc(C)c3C)cc2)cc1
    ., ., 9, -2, .
- CCOc1ccc(C(C)=O)cc1N1C(=O)C2C3C=CC(C3=C(C)C)C2C1=O (stereo unspecified)
    ., ., 11, 5, .
- CCN(C(=O)COC(=O)c1cc(C)n(-c2ccc(F)cc2)c1C)C1CCS(=O)(=O)C1 (stereo unspecified)
    i, i, 4, 3, i
- COc1ccc2cc3cc(C(=O)Nc4ccc5c(c4)OCCO5)oc3nc2c1
    ., ., -11, -3, .
- CN(C)CCNC(=O)c1ccc2c(c1)N(Cc1ccc(F)cc1)CCS2
    ., ., -1, 2, .
- CN1CCN(CCCNC(=O)C2CCN(c3nnc(-n4cccc4)s3)CC2)CC1
    ., ., 13, 5, .
- CC(=O)NC(CCS(C)(=O)=O)C(=O)Nc1ccc(C)c(F)c1 (stereo unspecified)
    ., ., -4, -6, .
- COC(=O)CSc1nc2ncc(Cl)cc2[nH]1
    i, i, -2, 5, i
- COC(=O)c1c(-c2cccc(OC)c2)csc1N
    ., ., -8, -3, .
- CC(=O)NCCn1c(SCC#N)nc2ccccc2c1=O
    ., ., -2, -4, .
- COc1ccccc1CNC(=O)CN1CCN(Cc2ccc(Cl)cc2)C1=O
    ., ., -2, 5, .
- COC(=O)C1=C(C)NC(C)=C(C(=O)OC)C1c1ccccc1[N+](=O)[O-]
    i, i, 2, 5, i
- COc1ccccc1-n1c(SCC(=O)Nc2nnc(C)s2)nc2c(c1=O)SCC2
    ., ., 2, 5, .
- Cc1ccc(CC2C(=O)N(c3ncccn3)C(=O)C2C)cc1 (stereo unspecified)
    ., ., -1, -1, .
- Cc1cc(C)n(-c2nc(C)nc3c2cnn3-c2ccccc2)n1
    i, i, -5, -2, i
- Cc1ccc(-c2nnc(SC(C)C#N)n2N)cc1 (stereo unspecified)
    i, i, 6, 4, i
- COCCn1c(SCC(=O)N2CCc3ccccc32)nc2c(c1=O)SC(C)C2 (stereo unspecified)
    i, i, -2, -7, i
- COc1cc2c(OC)cccc2cc1C(=O)O
    i, i, -3, 11, i
- O=c1[nH]ncn2cccc12
    ., ., 12, 5, .

22 neighbouring entries already listed, for reference:
Under each structure – VCAM-1 down, VCAM-1 augmentation, FPRL1 binder, FPR ligand, VCAM-1 imaging
- Cc1cccc(-n2c(N)c(C(=O)N3CCN(C)CC3)sc2=S)c1
    i, i, 2, -7, i
- CCC(=O)N1CCc2cc(S(=O)(=O)CCC(=O)Nc3ccc(F)c(F)c3)ccc21
    i, i, 0, -3, i
- Cc1ccc(N2CCN(C(=O)C3CCN(S(=O)(=O)c4cccc5nsnc45)CC3)CC2C)cc1 (stereo unspecified)
    ., ., -2, -6, .
- S=c1[nH]nc(-c2ccco2)n1-c1cccc2ccccc12
    i, i, 5, -4, i
- COc1ccc(-c2cc(C(F)(F)F)n3nc(C(=O)N4CCOCC4)nc3n2)cc1
    i, i, 3, -4, i
- CC1CCN(S(=O)(=O)N2CCC(C(=O)NCc3cccs3)CC2)CC1
    ., ., -3, 2, .
- Cc1ccc(OCC(=O)Nc2ccc(S(=O)(=O)Nc3onc(C)c3C)cc2)cc1
    ., ., 9, -2, .
- CCOc1ccc(C(C)=O)cc1N1C(=O)C2C3C=CC(C3=C(C)C)C2C1=O (stereo unspecified)
    ., ., 11, 5, .
- CCN(C(=O)COC(=O)c1cc(C)n(-c2ccc(F)cc2)c1C)C1CCS(=O)(=O)C1 (stereo unspecified)
    i, i, 4, 3, i
- COc1ccc2cc3cc(C(=O)Nc4ccc5c(c4)OCCO5)oc3nc2c1
    ., ., -11, -3, .
- CN(C)CCNC(=O)c1ccc2c(c1)N(Cc1ccc(F)cc1)CCS2
    ., ., -1, 2, .
- CN1CCN(CCCNC(=O)C2CCN(c3nnc(-n4cccc4)s3)CC2)CC1
    ., ., 13, 5, .
- CC(=O)NC(CCS(C)(=O)=O)C(=O)Nc1ccc(C)c(F)c1 (stereo unspecified)
    ., ., -4, -6, .
- COC(=O)CSc1nc2ncc(Cl)cc2[nH]1
    i, i, -2, 5, i
- COC(=O)c1c(-c2cccc(OC)c2)csc1N
    ., ., -8, -3, .
- CC(=O)NCCn1c(SCC#N)nc2ccccc2c1=O
    ., ., -2, -4, .
- COc1ccccc1CNC(=O)CN1CCN(Cc2ccc(Cl)cc2)C1=O
    ., ., -2, 5, .
- COC(=O)C1=C(C)NC(C)=C(C(=O)OC)C1c1ccccc1[N+](=O)[O-]
    i, i, 2, 5, i
- COc1ccccc1-n1c(SCC(=O)Nc2nnc(C)s2)nc2c(c1=O)SCC2
    ., ., 2, 5, .
- Cc1ccc(CC2C(=O)N(c3ncccn3)C(=O)C2C)cc1 (stereo unspecified)
    ., ., -1, -1, .
- Cc1cc(C)n(-c2nc(C)nc3c2cnn3-c2ccccc2)n1
    i, i, -5, -2, i
- Cc1ccc(-c2nnc(SC(C)C#N)n2N)cc1 (stereo unspecified)
    i, i, 6, 4, i

More results
Under each structure – VCAM-1 down, VCAM-1 augmentation, FPRL1 binder, FPR ligand, VCAM-1 imaging
- O=C(CCn1cccc1)NCc1ccc(Cl)cc1
    ., ., -1, -2, .
- CN(C)CCCN1C(=O)C(O)=C(C(=O)c2cc3ccccc3o2)C1c1ccccc1 (stereo unspecified)
    ., ., -5, -21, .
- O=C(CCS(=O)(=O)c1ccc(Br)s1)NCc1cccs1
    ., ., -4, 0, .
- Cn1cc(C(=O)NC2CCCCC2)c(=O)c2cc(S(=O)(=O)N3CCCC3)ccc21
    ., ., 2, 2, .
- CCCCN(CCCC)C(=O)CCS(=O)(=O)c1ccc2c(c1)n(C)c(=O)c(=O)n2C
    ., ., 5, 2, .
- O=C(C1CC1)N1CCN=C1SCc1cccc(C(F)(F)F)c1
    ., ., -3, -2, .
- Cc1ccc(OCC2Cn3c(nc4c3c(=O)n(C)c(=O)n4C)O2)cc1 (stereo unspecified)
    i, i, -3, 0, i
- Cc1[nH]c2ccccc2c(=O)c1CN(C)Cc1ccccc1
    i, i, 1, 2, i
- Cc1cccn2c(=O)c3cc(C(=O)N4CCCc5ccccc54)n(C)c3nc12
    i, i, -4, 1, i
- COc1cc(CN/C(C)=C(\C#N)C(N)=O)cc(OC)c1OC
    ., ., -1, -1, .
- COc1ccc(C2/C(=C(/O)c3ccccc3)C(=O)C(=O)N2CC(C)O)c(OC)c1 (stereo unspecified)
    ., ., 7, 42*, .
- O=C(Nc1ccncc1)c1cncc(Br)c1
    i, i, 3, -3, i
- CC(C)c1ccc(NC(=O)C2C3C=CC4(CN(CCCN5CCOCC5)C(=O)C24)O3)cc1 (stereo unspecified)
    ., ., 21, -1, .
- Cc1ccc(C)c(N2CCN(C(=O)CCCOc3cc(=O)n(C)c4ccccc34)CC2)c1
    ., ., -6, 1, .
- O=C(NCc1ccccn1)C1CCCN(Cc2cnn(-c3ccccc3)c2-n2cccc2)C1 (stereo unspecified)
    ., ., -2, -9, .
- NC(=O)C1CCN(c2nc(-c3ccccc3)nc3ccccc23)CC1
    i, i, 0, -4, i
- Cc1ccc(OCC(O)Cn2c(=N)n(CCN3CCCCC3)c3ccccc32)cc1 (stereo unspecified)
    i, i, -2, -5, i
- O=C(CNCCC1=CCCCC1)Nc1ccccc1N1CCCCC1
    i, i, 7, -3, i
- Cc1ccc(OCCN2C(=O)OC(C)(C)C2(C)O)cc1 (stereo unspecified)
    ., ., 0, 0, .
- CCCNC(=O)c1noc2c1CCc1ccccc1-2
    ., ., 2, 4, .
